HNF4A DNA FP – change in binding of human HNF4 alpha to DNA; P41235; HNF4a-FITC DNA binding, fluorescence polarization, 1 h; activity change, % at 10 µM; 360,000 compounds, 0.3% hits; AID 1224865; in the data active means activity change above about 30%, passing the limit was not always enough;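 further: controls were the assay level and a saturating level of protein; the project sought stronger binding though the title names inhibitors; some compounds called inactive have numbers as strong as hits; positive values seem to mean higher polarization but the record does not say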
Target sequence (P41235 whole entry, looked up): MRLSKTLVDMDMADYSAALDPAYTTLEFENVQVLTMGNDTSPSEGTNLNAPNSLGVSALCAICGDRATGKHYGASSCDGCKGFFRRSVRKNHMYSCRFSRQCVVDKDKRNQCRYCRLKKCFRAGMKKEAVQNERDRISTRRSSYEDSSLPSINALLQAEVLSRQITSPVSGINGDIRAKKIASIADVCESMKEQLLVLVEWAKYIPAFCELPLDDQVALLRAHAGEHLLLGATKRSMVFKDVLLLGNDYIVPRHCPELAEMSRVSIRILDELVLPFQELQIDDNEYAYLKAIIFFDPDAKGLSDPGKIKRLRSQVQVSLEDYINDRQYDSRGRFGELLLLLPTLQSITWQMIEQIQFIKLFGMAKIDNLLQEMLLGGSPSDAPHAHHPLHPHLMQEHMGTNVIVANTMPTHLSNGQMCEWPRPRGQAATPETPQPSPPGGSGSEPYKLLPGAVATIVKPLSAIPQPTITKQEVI
Beta2AR agonist – human beta-2 adrenergic receptor agonism by FAP; P07550; Am2.2-beta2AR cells, FAP receptor internalization, flow cytometry; reference of the scale not given here; response, % (concentration not given with the values); 340,000 compounds, 0.43% hits; AID 504454;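 active means response above a set limit, near 3 SD of response in nonfluorescent compounds, cut at about 42% in these data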;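 further: stock transfer was 100 nL into about 11 µL; a reference agonist was the positive control; negative values mostly stem from fluorescent compounds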
LANA-H2B inh – blocks KSHV LANA binding to histone H2A/H2B | inhibition, % (test concentration not listed) | Q9QR71 | AID 2629 | 320,000 compounds, 0.6% hits | cell-free LANA-H2A/H2B peptide, fluorescence polarization; in the data active means inhibition mostly above about 10%, no sharp cut-off; inactive means mostly below about 6.7%;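 further: stock transfer was 7.5 nL into about 10 µL; 0% = median of vehicle wells and 100% = median of positive control wells; one replicate is shown; the record names a cut of 25% in any replicate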
ALR inh – inhibitors of human sulfhydryl oxidase ALR | inhibition, % (no concentration beside the values) | 290,000 compounds, 3.8% hits | P55789 | AID 485317 | purified ALR, DTT oxidation, H2O2 HRP-luminol luminescence;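 active means mean and each replicate at 75% or more; inconclusive means only one of the two met; inactive means neither met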;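 further: stock transfer was 7.5 nL into about 7.5 µL; 0% = neutral wells and 100% = wells with inactivated enzyme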
Target sequence (P55789 whole entry, looked up): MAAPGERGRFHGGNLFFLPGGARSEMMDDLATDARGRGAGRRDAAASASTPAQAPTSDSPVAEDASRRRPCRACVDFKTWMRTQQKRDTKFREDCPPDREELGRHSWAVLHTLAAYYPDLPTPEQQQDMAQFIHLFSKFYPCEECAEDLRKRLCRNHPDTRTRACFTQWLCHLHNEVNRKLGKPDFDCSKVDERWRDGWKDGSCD
Calb FLC – affects C. albicans growth with fluconazole. C. albicans CaCi-2 (fluconazole-resistant clinical isolate) + fluconazole, Alamar Blue growth, 48 h. growth inhibition, % (concentration not given with the values). 300,000 compounds, 0.57% hits. AID 1979;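 active means most replicates above 75%; inconclusive means exactly half above 75%; inactive means most below 75%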;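 further: all wells also contain fluconazole at 8 µg/ml as a sub-toxic cotreatment; 0% = median of DMSO wells and 100% = median of geldanamycin control wells; wells of about 8 µL received 7.5 nL stock; the first replicate is given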
RanGTP-Imp inh – inhibitors of RanGTP-importin-beta interaction, primary screen, biochemical, FRET, CFP-Ran, YFP-importin-beta, homogeneous | cell-free CFP-Ran/YFP-importin-beta FRET ratio | inhibition, % (no concentration beside the values) | 300,000 compounds, 1.1% hits | AID 2216;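 active means most replicates above 15%; inconclusive means exactly half above 15%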;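 further: 0% = DMSO wells and 100% = Ran loaded with GDP instead of GTP; wells of about 40 µL received 100 nL stock; the first replicate is given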
Vif A3G – inhibitors of Vif binding to APOBEC3G peptide, primary screen, biochemical, TR-FRET, GST-Vif 1-94, biotin-A3G peptide, dose response retest (AID 1117319) | TR-FRET GST-Vif / biotin-A3G peptide binding; higher % means a stronger effect; test concentration not given here; strong numbers were not always called active | one-dose inhibition, %; IC50 in µM for titrated hits | 260,000 compounds, 0.57% hits;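 active means above the screen mean plus three standard deviations and confirmed in dose response; inconclusive means results disagree or hit not tested in dose response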;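 further: Vif residues 1-94 fused to GST binding biotinylated APOBEC3G peptide 110-148; 0% = full assay without inhibitor and 100% = GST in place of GST-Vif; retest series ran down from 100 µM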
Starred values were filed as active, the others as inactive; ? = inconclusive; · = no result given.

molecule	HNF4A DNA FP	Beta2AR agonist	LANA-H2B inh	ALR inh	Calb FLC	RanGTP-Imp inh	Vif A3G
O=C(CN1CCN(Cc2ccccc2Cl)CC1)N/N=C/c1ccccn1	28	7	2.2	-10	6	-2.2	?
CN1C(=O)N(c2nnc(C(C)(C)C)s2)C(=O)C1c1ccccc1 (centres undefined)	1.3	-11	1.6	-3	-6	-1.8	·
COc1cc(NC(=O)c2ccccc2OCc2ccccc2)cc(OC)c1OC	-2.5	3	0.0	-16	2	-4.0	·
COCCCNC(=O)/C(C#N)=C/c1c(N2CCN(C)CC2)nc2c(C)cccn2c1=O	2.6	-1	-1.6	-2	-15	-38	-1%
Cc1nc(SCC(=O)Nc2cc(C)on2)c2c3c(sc2n1)CCCC3	1.3	-11	-0.6	-19	-1	2.3	-50%
CS(=O)(=O)N1N=C(c2cccs2)CC1c1ccc(F)cc1 (centres undefined)	15	7	1.8	6	-1	0.1	1%
COCc1c(C(=O)Nc2cccc(S(=O)(=O)N3CCCCC3)c2)oc2ccccc12	1.4	19	4.4	-2	·	·	-14%
CSc1ccc(CN(C)C(=O)c2cc(=O)c3ccccc3o2)cc1	-0.2	-7	1.7	-3	-17	-3.4	·
S=C(NC1CCCCC1)N1CCc2ccccc2C1	-0.8	-17	-1.7	0	0	-1.4	-4%
COc1cc(/C=N/NC(=O)c2cccnc2)ccc1OC(=O)c1ccc([N+](=O)[O-])cc1	2.1	-4	4.2	66	-7	-0.6	2%
COC(=O)c1cc(C)[nH]c2c(C)cc3nc4ccccc4c3c12	2.5	16	-5.2	-8	10	-3.9	-23%
Cc1ccc([N+](=O)[O-])cc1NC(=O)CN(C)CCOc1ccccc1	0.3	6	2.2	·	2	-0.6	1%
COc1ccc(-c2[nH]ncc2N=Nc2ccccc2)cc1	-7.6	-34	0.8	-1	-1	-3.8	-9%
C[C@@H](CN=[N+]=[N-])CN1CC[C@H](O)CCC1=O	4.2	0	2.5	0	12	3.8	·
CCc1ccc(-c2cc(C)no2)cc1S(=O)(=O)N1CCC(C)CC1	0.0	-9	6.2	2	10	4.3	·
CCCCNC(=O)CSc1nc2ccsc2c(=O)n1CCCC(=O)NCCc1ccc(S(N)(=O)=O)cc1	2.3	15	5.2	-3	?	-2.6	23%
CCN(CC)C(=O)Oc1cc(=O)n(C)c2ccccc12	0.7	-3	·	·	0	1.4	3%
O=C(CSc1nnc(CNC(=O)c2cccs2)o1)Nc1ccc(F)cc1F	2.9	-5	-0.1	-69	-6	-0.5	·
COCCN(C(=O)COC(=O)/C=C/c1ccc2c(c1)OCO2)c1c(N)n(Cc2ccccc2)c(=O)[nH]c1=O	-0.1	5	0.2	-2	·	1.0	-5%
CC1CCCN(CC(=O)Nc2ccc(S(=O)(=O)N3CCCCCC3)cc2)C1 (centres undefined)	-0.2	-9	-1.6	-31	-9	-5.4	11%
COc1cccc(C(C(=O)NC2CCCCC2)N(C(=O)CNC(=O)c2ccco2)c2cccnc2)c1 (centres undefined)	3.2	3	0.2	4	-7	1.3	·
CCCC(=O)Nc1ccc(Nc2ccccc2)cc1	0.7	4	3.2	99*	-11	0.1	·
CCN(CC(=O)NC(C)C)C(=O)C(CCSC)NC(=O)c1ccccc1OC (centres undefined)	0.2	-3	-4.0	-6	-3	-1.6	1%
CSc1nnc(-c2ccncc2)n1/N=C/c1cn(-c2ccccc2)nc1-c1ccc(Cl)cc1	-1.0	30	2.2	-5	1	2.8	·
COc1ccccc1NC(=O)CSc1nc2ccccc2c(=O)n1C	0.2	4	-2.1	-5	-2	3.5	·
Cc1oc2c(cc(NS(=O)(=O)c3ccc(Cl)cc3)c3ccccc32)c1C(=O)O	-8.9	8	-3.1	-19	13	·	·
O=C(CN(C(=O)c1csnn1)c1cccc(Cl)c1)NC1CCCC1	-1.6	-5	3.7	-1	9	?	-5%
COc1ccc(-c2nn(CC(=O)N(C)C)c(=O)c3ccccc23)cc1	-0.5	-2	-4.9	·	7	3.6	-3%
COc1cc(OC)c2c(-c3cccc(-c4sccc4C(C)=O)c3)cc(=O)oc2c1	12	13	·	·	·	·	-16%
O=C(NCC(c1cccs1)N1CCOCC1)c1cccc([N+](=O)[O-])c1 (centres undefined)	0.5	1	-4.3	-13	-4	-1.7	8%
COc1ccccc1CNC(=O)CCS(=O)(=O)c1ccc(Cl)cc1	1.2	-2	-2.9	-1	-7	-2.1	-9%
Cc1c(Cl)cccc1N1C(=O)c2ccccc2C1=O	3.9	-5	1.2	-2	3	?	?
C#Cc1ccc(C(=O)NCc2ccc(N3CCCC3=O)cc2)cc1	-15	-6	0.8	-17	9	-0.8	7%
Cc1cc(F)ccc1NCC(=O)Nc1ccc(Br)cc1C	-0.1	-1	3.0	·	3	-2.8	9%
CN1C(C(=O)Nc2cccc(O)c2)=CC(c2ccco2)=NS1(=O)=O	-2.2	-2	3.3	12	-3	0.6	-1%
CCOP(=O)(OCC)C(NC(=O)c1cccs1)c1ccccc1 (centres undefined)	1.5	-3	-1.8	2	-2	?	·
CCN(CC)c1ccc(-c2n[nH]c(=S)n2-c2ccccc2)cc1	-0.6	16	-0.6	21	8	7.0	25%
CN1C(=O)N(CC(=O)N2CCN(S(=O)(=O)c3ccc(Cl)s3)CC2)C(=O)C12CCCCC2	-1.1	-25	-2.4	-1	·	·	-4%
CCOc1ccc(S(=O)(=O)Nc2cccc(C)c2)c2cccnc12	-3.3	-17	2.3	-1	0	3.1	-4%
O=C(O)c1cc(S(=O)(=O)Nc2cccc(Oc3ccccc3)c2)ccc1Br	-0.8	5	3.6	4	5	-0.5	-3%
O=C(C[n+]1ccccc1)N/N=C/c1cc(Br)ccc1O	-1.6	-6	2.8	18	-21	-3.2	1%
COC(=O)c1ccc(/C=N/NC(=O)c2ccc3nc[nH]c3c2)cc1	-0.3	7	6.4	-12	-2	7.0	-9%
O=C(O)CC(NC(=O)OCc1ccccc1)c1ccccc1 (centres undefined)	-3.1	0	5.7	-15	·	2.0	1%
COC(=O)Cc1ccc(NC(=S)N2CCCC(CO)C2)cc1 (centres undefined)	-0.2	-10	·	·	36	0.4	·
CC(C)c1nnc(NC(=O)CCC(=O)NC2CC2)s1	-0.2	-1	3.3	-6	-3	-0.3	·
COc1cccc(C(=O)Nc2cc(C)on2)c1OC	-3.0	11	-2.6	-7	-5	-1.1	1%
O=C(Nc1ccc(F)cc1)Nc1ccc([N+](=O)[O-])cn1	-2.9	1	2.5	0	5	6.5	·
C=CCOc1ccc(C2C(C#N)=C(N)N(N(C)C)C3=C2C(=O)CCC3)cc1 (centres undefined)	1.3	-1	0.3	-23	-3	-2.0	-2%
COc1ccc(/C=N/NC(=O)c2ccccc2OC)cc1COc1ccccc1[N+](=O)[O-]	83*	-12	0.7	-4	-6	-1.3	·
CC(c1ccccn1)N(C)C(=O)c1ccc2nc(Cc3cccc(Cl)c3)oc2c1 (centres undefined)	-1.9	-15	1.5	2	-6	1.0	·
O=C1CSC(c2ccccn2)N1c1ccc(C(F)(F)F)cc1 (centres undefined)	2.6	11	0.5	44	-3	1.4	3%
CCCCN(CCCC)C(=S)NC(=O)c1ccccc1Cl	0.3	8	-0.6	3	-4	-2.3	-1%
C[C@H]1CN([C@@H](C)CO)C(=O)c2cccc(NC(=O)Nc3ccc(C(F)(F)F)cc3)c2O[C@@H]1CN(C)S(=O)(=O)c1ccc(Cl)cc1	4.1	17	15*	-4	·	·	·
Cc1c(Br)c(C(F)(F)F)nn1CC(=O)NCc1ccco1	0.8	-1	-4.5	1	5	0.9	-2%
Cc1c(C(=O)NCCCN2CCCCC2)oc2ccc3c(c12)C(O)CC1(CCCCC1)O3 (centres undefined)	2.6	18	2.0	-3	47	1.8	·
O=C(OCc1cc2ccccc2[nH]c1=O)C1CCCO1 (centres undefined)	2.5	-37	-1.4	-6	-3	-0.3	4%
CC[C@@H]1C/C=C\Cc2ccccc2[C@@H](C(=O)C[C@@H](O)CC(C)=O)OC1=O	0.2	-3	3.7	·	·	·	2%
CCOn1c(SCC)nc2ccccc2c1=O	-1.0	-2	3.4	-15	-24	-3.3	2%
O=C(O)C1=C[C@H](c2ccc(F)cc2)C[C@H](OCc2ccc(CO)cc2)O1	-3.0	2	-0.7	·	4	0.3	4%
COc1ccc(NC2c3ncccc3C(=O)N2Cc2ccccc2)c(OC)c1 (centres undefined)	-2.7	4	-0.7	-97	?	1.0	28%

Shown as a hit in LANA-H2B inh, among the entries above:
| molecule | HNF4A DNA FP | Beta2AR agonist | LANA-H2B inh | ALR inh | RanGTP-Imp inh | Vif A3G |
| --- | --- | --- | --- | --- | --- | --- |
| C[C@H]1CN([C@@H](C)CO)C(=O)c2cccc(NC(=O)Nc3ccc(C(F)(F)F)cc3)c2O[C@@H]1CN(C)S(=O)(=O)c1ccc(Cl)cc1 | 4.1 | 17 | 15* | -4 | · | · |

Further records:
molecule	HNF4A DNA FP	Beta2AR agonist	LANA-H2B inh	ALR inh	Calb FLC	RanGTP-Imp inh	Vif A3G
Cc1ccc(OCC(=O)Nc2cnn(CCCC(=O)O)c2)c([N+](=O)[O-])c1	-1.3	7	-3.4	2	-4	0.6	-4%
C#CCOC(=O)/C(=C/C=C/c1ccccc1)NC(=O)c1ccccc1	1.6	-3	1.1	-2	-14	1.2	-6%
CN(CCO)c1ncnc2c1sc1nc(N3CCOCC3)c3c(c12)CCC3	-0.9	5	1.6	-2	14	0.3	·
CCC1CCCCN1CCCNC(=O)C1CCC(Cn2c(=O)[nH]c3ccccc3c2=O)CC1 (centres undefined)	1.2	-7	-0.4	1	-14	-2.2	2%
Clc1nc2c(-c3ccccc3)nnn2c2ccccc12	3.2	14	1.4	13	-6	2.0	·
O/N=C1\CCCc2nnc3c(c21)CCCC3	0.9	0	-0.6	·	-1	2.2	?
CCOC(=O)C1CCN(C(=O)c2ccc3c(=O)n4c(nc3c2)CCCCC4)CC1	0.1	16	-1.0	-4	-6	-4.6	2%
CN1CCN(c2ccc(NC(=O)c3ccc(Cl)cc3Cl)cc2)CC1	-0.6	-7	-8.3	1	2	-1.1	4%
Cc1cc(C)cc(N(C(=O)c2snc(C(N)=O)c2N)C(C(=O)NCC2CCCO2)c2ccc(C)o2)c1 (centres undefined)	3.2	10	-3.7	2	10	-3.8	·
CC1Cc2ccccc2N1S(=O)(=O)c1cccs1 (centres undefined)	115*	-181	-12	-2	-15	-2.6	-2%
O=C1c2cccc3c(N4CCCCC4)ccc(c23)C(=O)N1c1ccc(O)cc1	-104	-69	14	-8	-7	·	3%
Cc1cc(NCCO)nc(N2CCOCC2)n1	-0.1	-7	1.5	4	3	1.0	5%
O=C(COC(=O)c1c2c(nc3ccccc13)CCCC2)c1ccc(Br)s1	1.2	0	4.1	-14	3	-4.8	-13%
CCOc1ccc(N(CC)C(=O)c2cn(CC)c(=O)c3cc(OC)c(OC)cc23)cc1	1.3	0	0.1	-25	4	10.0	2%
COc1ccc(CNCc2cc3c(cc2[N+](=O)[O-])OCO3)cc1	-1.8	-4	4.8	-35	9	-3.0	·
CN(CCNC(=O)CN1CCN(Cc2ccccc2Cl)C1=O)Cc1ccccc1	-0.4	-4	1.3	2	-1	1.2	-5%
Cn1ccnc1Sc1cc(NCCCO)c([N+](=O)[O-])c2nonc12	-3.2	46*	-5.1	65	-2	1.2	?
CC(Sc1nnc(-c2ccccc2F)n1C)C(=O)NC1CCCCC1 (centres undefined)	2.0	0	-3.4	1	·	·	17%
